Source: PubChem BioAssay
Hsc70: Hsc70 inhibitors, probe displacement, primary screen, biochemical, fluorescence polarization (AID 568); 83,000 tested, under 10 active; one-dose displacement, % at 20 µM; IC50 in µM for titrated hits; Hsc70 fluorescence polarization, probe displacement; higher % means a stronger effect; strong numbers were not always called active; Heat shock cognate 71 kDa protein (Homo sapiens);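 active means displacement above 50% without optical interference and an IC50 on retest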;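 further: ATPase domain with a fluorescein-tagged ATP probe; 0% = vehicle and 100% = excess ADP; read after one hour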
MT1-MMP reporter: inhibitors of MT1-MMP promoter transcription, cell-based, luciferase reporter, luminescence (AID 618); actives 0.62% (n = 87,000); MT1-MMP promoter luciferase reporter cells, luminescence; calls from a first round at 10 µM; hits with a dose series show EC50 in µM;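 active means over half of the reporter light lost at 10 µM or EC50 under 50 µM; inactive means the rest and hits that failed the dose series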;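 further: actives suppress MT1-MMP promoter-driven transcription so potencies describe inhibitors; HT1080 fibrosarcoma cells; overnight exposure; toxic or luciferase-blocking compounds were not removed from the actives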
WNV NS2B-NS3 inh: inhibitors of WNV NS2B-NS3 protease, primary screen, biochemical, fluorogenic substrate; fluorogenic substrate Ex360/Em465; hits give low values; z-score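 (tested at a level between 10 and 100 µM)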; actives 0.18% (n = 65,000);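 active means z-score at -3 or under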;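 further: score is relative to mean and spread of the compound wells of a plate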
Target sequence (P06935 1371-1501 limits assumed): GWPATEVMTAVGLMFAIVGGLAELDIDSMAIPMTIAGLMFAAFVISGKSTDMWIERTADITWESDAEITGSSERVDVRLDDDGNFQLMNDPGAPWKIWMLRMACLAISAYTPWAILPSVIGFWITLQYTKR
Target sequence (P06935 1502-1679 limits assumed): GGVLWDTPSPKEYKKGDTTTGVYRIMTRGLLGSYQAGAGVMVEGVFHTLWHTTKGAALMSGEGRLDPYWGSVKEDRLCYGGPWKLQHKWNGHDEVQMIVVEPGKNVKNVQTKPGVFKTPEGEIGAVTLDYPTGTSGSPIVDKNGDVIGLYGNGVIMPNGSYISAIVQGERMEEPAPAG
An asterisk follows results filed as active; i = inactive; . = not tested or not shown.

mol,Hsc70,MT1-MMP reporter,WNV NS2B-NS3 inh
Cc1cc(NC(=O)COC(=O)CSc2nc3cc(Cl)ccc3n2Cc2ccccc2)no1,2.5%,i,-0.63
CN(CCCNC(=O)c1cccc(N2CCCC2=O)c1)c1ccccc1,-1.7%,i,-0.15
COc1ccc(N2C(=O)CC(NCc3cccs3)C2=O)cc1 (stereo unspecified),5.7%,i,0.85
Cc1csc(NC(=O)CCNS(=O)(=O)c2ccc3c(c2)c(=O)n(C)c(=O)n3C)n1,6.8%,i,0.62
Cc1c(C(=O)N2CCCCC2)sc(NC(=O)C23CC4CC(CC(C4)C2)C3)c1C#N,1.1%,i,.
O=C(c1cc(-c2cccc(O)c2)on1)N1CCCCC1,2.4%,6.3µM*,0.17
Cc1nc2c(C)cccn2c1/C(O)=C1\C(=O)C(=O)N(CCN2CCOCC2)C1c1cccs1 (stereo unspecified),2.4%,i,.
CC(C)N=C(NC#N)SCc1ccccc1F,-0.1%,i,1.2
CNc1oc(C)nc1S(=O)(=O)c1ccccc1,-6.0%,i,-0.39
COc1cc(-c2nnc3sc(Cc4ccccc4)nn23)cc(OC)c1OC,4.0%,i,-2
Cc1ccc(-c2nn(-c3ccccc3)cc2CN(Cc2ccccc2)C(=O)c2ccco2)o1,-2.3%,i,.
Cc1ccnc(NC(=O)CSc2cc(=O)n(C)c3ccccc23)c1,-2.4%,i,0.02
CCOc1cc2c3c(c1)C1(OCCO1)C(=O)N3C(C)(C)CC2C (stereo unspecified),-1.2%,i,-0.94
CCOC(=O)c1ccc(N2CC(O)=C(c3nc4ccccc4c(=O)[nH]3)C2=N)cc1,-12%,i,-1.3
COc1ccc(N2CC(C(=O)OCC(=O)c3cccc(OC)c3)CC2=O)cc1 (stereo unspecified),2.4%,i,-0.67
CCOc1ccccc1NC(=O)Nc1c(C)n(-c2ccccc2)c(=O)n1C,2.6%,i,.
COc1ccc(C(c2nnnn2Cc2ccc(F)cc2)N2CCN(c3ccccc3)CC2)cc1 (stereo unspecified),6.2%,i,0.39
CCCC(=O)NC(C)c1nc2ccccc2n1CC (stereo unspecified),6.1%,i,-0.16
COc1ccc(OC)c2sc(NC(=O)C3COc4ccccc4O3)nc12 (stereo unspecified),-2.4%,i,-0.75
C=CCC1(O)CC(c2ccco2)NC(c2ccco2)C1CCC (stereo unspecified),-0.3%,i,.
CC(Sc1ccc2nnc(-c3ccc(F)cc3)n2n1)C(=O)O (stereo unspecified),-1.9%,i,-0.72
CC(C)c1cc(C(=O)N2CCN(C(c3ccccc3)c3ccccc3)CC2)no1,-0.9%,i,1.1
CCOc1ccc(NC2=NC(C(=O)NCc3ccccc3)CC(=O)N2)cc1 (stereo unspecified),-3.0%,i,-1.2
Cc1ccc(NCc2nnc(SCC(=O)N3CCc4ccccc43)n2C)cc1,2.0%,i,-0.91
O=C(O)c1ccc(S(=O)(=O)c2ccc3c(c2)C(=O)N(CC2CCCO2)C3=O)cc1 (stereo unspecified),-7.1%,i,-0.94
C=CCn1c(-c2ccc(S(=O)(=O)N3CCOCC3)cc2)csc1=Nc1ccccc1,-4.5%,i,.
COCCNC(C)C(=O)C12CC3CC(CC(C3)C1)C2 (stereo unspecified),-6.8%,i,-1.1
Cc1scc(C(=O)N/N=C/c2ccco2)c1C,1.7%,i,.
C=CCNC(=O)C1CC(=O)N(c2ccc(OCC(=O)NCc3ccccc3)cc2)C1 (stereo unspecified),17%,i,-0.99
COc1ccc(N2CCN(c3ncnc4c3nnn4Cc3ccccc3Cl)CC2)cc1,-2.5%,i,.
COc1cccc(-c2nnc(SCC(=O)N3CCOCC3)o2)c1,3.3%,i,0.79
COc1cccc(OC)c1C(=O)N1CCOCC1,-10%,i,-0.16
COc1cc(Nc2cc(C)nc3ncnn23)cc(OC)c1,-5.0%,i,1
Cn1c(=O)c2c(nc(SCC(=O)N(C3CCCCC3)C3CCCCC3)n2C)n(C)c1=O,-1.5%,i,.
CC1CC(C)CN(c2nc3c(c(=O)[nH]c(=O)n3C)n2CCCSc2nc3ccccc3s2)C1 (stereo unspecified),7.9%,i,0.15
O=C(Nc1ccccc1)c1cccc(N2CCCC2=O)c1,2.6%,i,-0.32
O=C(C1CCC(C(=O)N2CCCCC2)CC1)N1CCCCC1 (stereo unspecified),-0.8%,i,-0.67
N#Cc1nc(-c2ccc(F)cc2)oc1NCc1cccc2c1OCO2,-2.8%,i,-0.54
CCCCc1ccc(-c2ccc(Br)cc2O)nc1,1.3%,i,.
c1ccc(Cn2c(Nn3cnnc3)nc3ccccc32)cc1,4.0%,i,-0.42
O=C(c1ccco1)N1CCN(C(=O)C2CC(c3ccc(Cl)cc3)=NO2)CC1 (stereo unspecified),-2.2%,i,.
N#CC(C(=O)OC1CCCCC1)c1nc2ccccc2nc1N1CCOCC1 (stereo unspecified),-0.7%,i,1.3
CCN1CCCC1CN(Cc1cc2cc(C)ccc2[nH]c1=O)C(=O)Nc1ccccc1OC (stereo unspecified),0.2%,i,-0.8
Cn1c(=O)n(C)c2cc(S(=O)(=O)N3CCOCC3)ccc21,-2.8%,i,1.2
CCOC(=O)c1c(C)c2c(n1C)CCC/C2=N\O,-3.7%,i,0.38
COc1ccc(-c2noc(CN(C(=O)c3ccc(OC(C)=O)cc3)C(C)C)n2)cc1OC,-4.8%,i,0.19
Cc1cccc(NC(=O)C2CCN(S(=O)(=O)c3cccc4cccnc34)CC2)c1,2.2%,i,1.7
Cc1noc(C)c1S(=O)(=O)N1CCCC(C(=O)Nc2cccnc2)C1 (stereo unspecified),-5.0%,i,1.1
CC(=O)N1CCc2cc(Br)cc(S(=O)(=O)NCCN3CCCCC3C)c21 (stereo unspecified),-0.6%,i,-0.61
CC(C)(C)c1ccc(-c2nnc3sc(-c4ccncc4)nn23)cc1,-0.5%,i,-0.05
O=C(Nc1ccccc1C(F)(F)F)c1cc(S(=O)(=O)N2CCOCC2)ccc1F,2.0%,i,0.3
CC(=O)OCC(=O)[C@H]1CC[C@H]2[C@@H]3CCC4=CC(=O)CC[C@]4(C)[C@H]3CC[C@]12C,6.8%,i,0.01
COc1ccc(Cl)cc1N(C)C(=O)CCc1nc(-c2ccc(C)cc2)no1,-2.4%,i,-0.18
CCSc1nnc(NC(=O)CSc2nnc(Cc3cccn3C)n2-c2ccc(F)cc2)s1,-1.3%,i,-0.92
O=C(CN(CC1CCCO1)C(=O)CCC(=O)Nc1ccccn1)NCc1ccccc1 (stereo unspecified),-1.1%,i,.
Cc1cccc(C)c1NC(=O)CSc1nnc(-c2ccoc2C)n1C,-2.0%,i,0.24
CCCCOc1ccc(C(=O)N2CC(C)OC(C)C2)cc1 (stereo unspecified),-1.6%,i,.
Cc1ccc(NC(=O)c2ccc(F)c(S(=O)(=O)N3CCOCC3)c2)cc1F,-1.0%,i,-2.3
Cc1cc(F)ccc1NCc1cccnc1,-1.1%,i,.
CCc1ccc(C(=O)c2oc3nc(C)cc(C)c3c2N)cc1,-4.9%,i,.

Next records:
Order of results: Hsc70 | MT1-MMP reporter | WNV NS2B-NS3 inh
Cc1ccc(NC(=O)CN2C(=O)NC3(CCC(C)CC3)C2=O)c(Cl)c1 (stereo unspecified)
→ 4.3% | i | 0.25
Cc1cc(C)c(NC(=O)CN2CCN(C)CC2)c(C)c1
→ 4.0% | i | -2
COc1ccc2c(c1)CC/C(=C\C=C\c1ccccc1)C2=O
→ -4.0% | i | .
COC(=O)c1cccc(S(=O)(=O)N2CCN(c3nc4ccccc4s3)CC2)c1
→ 0.2% | i | 0.11
O=c1c2cc3ccccc3n2cnn1Cc1ccccc1F
→ -0.1% | i | -0.39
COC(=O)c1ccc(COn2c(=O)c(C)[n+]([O-])c3ccccc32)cc1
→ -4.9% | i | .
Cc1cccnc1NC(=O)Nc1cccs1
→ -1.6% | i | .
O=C(CCNc1ccc(F)c(Cl)c1)c1ccco1
→ 2.2% | i | -0.64
COC(=O)C(NC(=O)c1ccc(C)cc1)(Nc1cccc(C)n1)C(F)(F)F (stereo unspecified)
→ 5.5% | i | .
COc1cccc(C2NC(c3cccc(OC)c3O)C(C)C(=O)C2C)c1O (stereo unspecified)
→ -4.0% | i | .
CC(C)C(=O)Nc1nnc(CCN2CCOCC2)s1
→ -3.2% | i | .
O=C(CSc1ncnc2c1oc1ccccc12)OCc1ccccc1
→ -10% | i | 1.4
O=C(Nc1nnc(CCN2CCCCC2)s1)C1CCCCC1
→ 2.1% | i | -0.59
O=C(NCc1ccco1)c1cc(-c2cccc(Cl)c2)on1
→ 4.6% | i | 0.43
CCN(CC)CCCN1C(=O)C(=O)/C(=C(/O)c2ccc3c(c2)CC(C)O3)C1c1cccnc1 (stereo unspecified)
→ 0.6% | i | 0.59
CC(NC(=O)CNC(=O)OCc1ccccc1)C(=O)N1CC(O)CC1C(=O)OCc1ccccc1 (stereo unspecified)
→ -1.8% | i | -0.79
CCOC(=O)N(C)c1ccc(C(O)(C(F)(F)F)C(F)(F)F)cc1
→ -0.1% | i | 0.31
CC(C)(C)C1=C(C#N)C(c2cc3c(cc2Br)OCO3)C(C#N)=C(N)O1 (stereo unspecified)
→ 4.1% | i | 1.4
Cc1ccc2c(c1)c1c3n2CCN(C(=O)C2CC2)C3CCC1 (stereo unspecified)
→ 1.5% | i | -2.2
COc1ccc(CN(Cc2ccco2)S(=O)(=O)c2ccc(S(=O)(=O)N3CCCC3)cc2)cc1
→ 1.2% | i | .

Record cards, from the list above.
Cc1ccc(NC(=O)CN2C(=O)NC3(CCC(C)CC3)C2=O)c(Cl)c1 (stereo unspecified) reads Hsc70: 4.3%; MT1-MMP reporter: i; WNV NS2B-NS3 inh: 0.25
CCN(CC)CCCN1C(=O)C(=O)/C(=C(/O)c2ccc3c(c2)CC(C)O3)C1c1cccnc1 (stereo unspecified) reads Hsc70: 0.6%; MT1-MMP reporter: i; WNV NS2B-NS3 inh: 0.59
COc1ccc2c(c1)CC/C(=C\C=C\c1ccccc1)C2=O reads Hsc70: -4.0%; MT1-MMP reporter: i; WNV NS2B-NS3 inh: .

(listing goes on)
Order of results: Hsc70 | MT1-MMP reporter | WNV NS2B-NS3 inh
O=C(c1ccc(-c2ccccc2)cc1)c1ccccc1C(=O)N1CCOCC1
→ -0.7% | i | .
Cc1cccc(-c2c3c(=O)n(C)c(=O)n(C)c3cn2C(C)C)c1
→ 3.8% | i | -1.3
COCCNC(=O)c1sc2nc(-c3ccccc3)cn2c1C
→ -3.3% | i | 1
CN1CCN(c2nc(-c3cccnc3)nc3ccccc23)CC1
→ 1.4% | i | -0.89
CC(=O)c1c(C(C)=O)c(C)n(NC(=O)c2ccncc2)c1C
→ -1.1% | i | -0.44
O=C(Cc1ccccc1)NC1CCN(S(=O)(=O)c2ccc(C(=O)O)cc2)CC1
→ -0.7% | i | .
O=C(OCCN=C1NS(=O)(=O)c2ccccc21)c1ccncc1
→ 5.4% | i | .
Cc1cc(=O)[nH]c(SCC(=O)NCCOc2ccccc2)n1
→ -5.8% | i | -1.7
CCOC(=O)C1=C(C)n2c(s/c(=C/c3cccc([N+](=O)[O-])c3)c2=O)=NC1c1ccc(O)c(OC)c1 (stereo unspecified)
→ -2.2% | i | .
COc1ccc(S(=O)(=O)N(C)CC(=O)N2CCCCC2)cc1Cl
→ 0.9% | i | -0.45
CNC(=O)c1ccccc1NC(=O)c1ccco1
→ 3.4% | i | .
CS(=O)(=O)c1ccc2nc(NC(=O)c3ccco3)sc2c1
→ 1.6% | i | -0.04
CCN(CC)S(=O)(=O)c1ccc2oc(C(=O)NCc3ccc(F)cc3)c(C)c2c1
→ -3.1% | i | -1.1
O=C(NCCC1=CCCCC1)c1ccc2c(=O)n3c(nc2c1)CCCCC3
→ 3.8% | i | -1.2
CCOC(=O)c1sc(NC(=O)C(CC)Sc2nccn2C)nc1C (stereo unspecified)
→ 3.5% | i | 0.77
Cn1c(C(=O)N2CCC(C(N)=O)CC2)cc2c(=O)n(C)c3ccccc3c21
→ -2.9% | i | -0.92
COc1ccc(N2CCN(C(=O)c3ccc4c(c3)OCO4)CC2)cc1
→ -2.7% | i | -0.0089
CCOCCCNS(=O)(=O)c1ccc(NC(=O)c2ccccc2)cc1
→ 1.9% | i | -0.89
CCOP(=O)(c1c(F)c(F)c(F)c(F)c1F)C(O)c1ccccc1 (stereo unspecified)
→ 1.0% | i | -0.86
CCOc1ccc(OCc2cccc(C(=O)N3CCCC3)c2)cc1
→ 0.4% | i | -0.33
Cc1cn2c(-c3cccnc3)nnc2s1
→ -3.1% | i | 0.55
O=C(NCc1ccco1)C1CCN(S(=O)(=O)N2CCOCC2)CC1
→ -6.2% | i | -0.63
Cc1nc(-c2cccc(NC(=O)c3cccs3)c2)cs1
→ 3.3% | i | .
O=c1c2c(-c3cccs3)csc2ncn1-n1cccc1
→ 1.6% | i | .
Cc1ccc(Cn2c(SCC(=O)Nc3cc(C)on3)nc3ccccc3c2=O)cc1
→ -7.4% | i | 0.25

Only part of the results is shown, so the mix of outcomes need not match the whole.
